# Bioassay records (PubChem BioAssay)
# HSV augment: HSV replication enhancement. HSV replication augmentation in cells, fold increase. maximum fold increase. AID 1956. 220,000 compounds, 0.005% hits;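 active means peak rise of 1.5-fold or more in the series; inconclusive means self-fluorescent or not available for retest; tested in PC3 cells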;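 further: first round at 10 µM; read as green reporter fluorescence; hits show the peak of a series up to 25 µM; 1 = signal of infected wells without compound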
# PKD1 kinase inh: blocks activity of human protein kinase D1. Q15139. PKD1 kinase fluorescence polarization assay. inhibition, %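 (about 10 µM by stock and volumes)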. 200,000 compounds, 0.056% hits. AID 797;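 active means inhibition of 50% or more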;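 further: controls were vehicle for no effect and a reference inhibitor for full effect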
# RGS16-Gao: regulators of human RGS16-Galphao interaction; O15492+P09471; bead-based flow cytometry RGS16-Galphao binding, fluorescence; actives lie on both sides; binding response (% of control), % at 10 µM; 220,000 compounds, 0.38% hits; AID 1441;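 active means below 25% or above 175%, edge rows of some plates excepted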;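 further: Galphao activated by GDP with aluminum fluoride before binding; 100% = wells without compound and 0% = beads without RGS; some results beyond the cut were filed as inactive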
# Target sequence (O15492 whole entry, looked up): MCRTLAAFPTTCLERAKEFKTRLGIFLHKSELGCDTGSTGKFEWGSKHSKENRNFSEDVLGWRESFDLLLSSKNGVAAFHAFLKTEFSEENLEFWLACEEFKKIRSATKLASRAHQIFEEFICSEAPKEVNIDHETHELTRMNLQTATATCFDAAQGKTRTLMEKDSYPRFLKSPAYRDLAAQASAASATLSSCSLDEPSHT
# Target sequence (P09471 whole entry, looked up): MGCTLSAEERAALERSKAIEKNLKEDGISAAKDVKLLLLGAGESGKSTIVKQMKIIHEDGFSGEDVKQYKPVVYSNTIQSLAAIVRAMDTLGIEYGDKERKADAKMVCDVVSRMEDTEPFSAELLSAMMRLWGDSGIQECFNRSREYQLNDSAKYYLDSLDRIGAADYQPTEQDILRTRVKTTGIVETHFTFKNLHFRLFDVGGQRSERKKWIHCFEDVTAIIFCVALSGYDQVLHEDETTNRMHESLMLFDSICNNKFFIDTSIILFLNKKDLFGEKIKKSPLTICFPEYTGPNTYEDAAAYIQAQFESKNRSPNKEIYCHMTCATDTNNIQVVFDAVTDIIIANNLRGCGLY
# Insulin prom inh: TRM-6 insulin promoter activity inhibition. TRM-6 cells (human fetal islet line), insulin promoter-eGFP reporter, imaging; reporter expression induced with tamoxifen. inhibition, % at 2 µM. 130,000 compounds, 0.9% hits;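 active means inhibition above the mean plus 3 SD, with well images judged a real hit on visual review, cut at about 60% in these data, passing the limit was not always enough; inconclusive means inhibition over the cutoff but images rejected on review; inactive means inhibition not above the cutoff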
# GALR2 ag: GALR2 (human) receptor agonism | O43603 | GALR2-expressing cells, agonist activation read-out | activation, %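 (tested at 5 µM)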 | 140,000 compounds, 0.48% hits | AID 803;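 active means above mean plus 3 SD of all compounds, about 5% in these data, not always enough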;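 further: 0% = vehicle buffer wells and 100% = reference agonist at full effect; tested in CHO reporter cells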
# Target sequence (O43603 whole entry, looked up): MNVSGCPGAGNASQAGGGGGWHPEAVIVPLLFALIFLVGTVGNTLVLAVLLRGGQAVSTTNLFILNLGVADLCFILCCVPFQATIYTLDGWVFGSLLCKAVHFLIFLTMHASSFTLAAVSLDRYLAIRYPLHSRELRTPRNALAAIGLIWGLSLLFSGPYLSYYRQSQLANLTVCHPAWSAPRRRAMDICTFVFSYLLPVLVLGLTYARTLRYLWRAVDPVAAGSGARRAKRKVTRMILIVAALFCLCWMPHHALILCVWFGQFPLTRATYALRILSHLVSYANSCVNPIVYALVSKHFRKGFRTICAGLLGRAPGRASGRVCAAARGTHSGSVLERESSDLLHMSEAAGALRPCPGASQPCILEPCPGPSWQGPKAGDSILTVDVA
# Insulin prom inh cell count: recorded beside Insulin prom inh, whose call it bears; normalized cell count, %; measured here: cell count, toxicity; reference of the scale not given here;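 cells exposed to compound for 48 h; stained nuclei by imaging scaled within each plate; lower means fewer cells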
# HSV augment primary fold: further read-out of HSV augment, marked with its call; fold increase; compound at 10 µM; measured here: primary screen fold increase 10 uM; tested in PC3 cells;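 GFP signal in the first replicate; 1 = infected wells without compound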
# * marks the source's active call; other numbers are inactive results; i = inactive; ? = inconclusive; . = no result given.
# Each structure is followed by: HSV augment, HSV augment primary fold, PKD1 kinase inh, RGS16-Gao, Insulin prom inh, Insulin prom inh cell count, GALR2 ag
> O=C(CCC(=O)c1cccs1)Nc1ccc(F)c(F)c1F
→ i, 0.95, -3, 90, 30, 64, -0.2
> O=C(/C=C/c1ccccc1)Nc1cccc(C(=O)O)c1
→ i, 1, 6, 99, ., ., .
> CC(C)(C)C1=C(C#N)C(c2ccc3c(c2)OCO3)C(C#N)=C(N)O1 (stereo unspecified)
→ i, 1, -2, 102, ., ., -1.3
> CCn1c2ccccc2c2nnc(SCc3ccc(C(=O)OC)o3)nc21
→ i, 0.96, 8, 102, ., ., -0.7
> Cn1cnnc1SCc1ccc(C(=O)N=Nc2c(O)n(C)c3ccccc23)cc1
→ i, 0.98, -8, 121, ., ., -1.9
> CCOC(=O)C1(Cc2cccc(OC)c2)CCN(CC=C(C)C)CC1
→ i, 0.94, -1, 104, ., ., .
> Cc1cc(=O)oc2cc(OCC(=O)OCC(=O)Nc3c(C)n(C)n(-c4ccccc4)c3=O)ccc12
→ i, 0.96, -7, 99, 0, 151, .
> COc1cc(NC(=O)c2ccc(COCC(F)(F)F)o2)cc(OC)c1OC
→ i, 0.91, 7, 102, 43, 106, -2.3
> CC(NC(=O)c1cn(C)c2ccc(S(=O)(=O)N3CCCC3)cc2c1=O)c1ccc2c(c1)OCCO2 (stereo unspecified)
→ i, 0.91, 3, 100, 13, 97, -1.4
> O=C(CCc1nnc(C2(c3ccc(Cl)cc3)CCC2)o1)NC1CC1
→ i, 1, 0, 101, ., ., .
> O=C(c1cc2ccccc2s1)N1CCOCC1
→ i, 1, ., 102, ., ., .
> N/C(=N\OC(=O)c1csnn1)c1ccc(C(F)(F)F)cc1
→ i, 1.1, ., 95, ., ., .
> COc1cccc(CC(NC(C)=O)C(=O)NC2CCN(c3nnnn3-c3ccccc3)CC2)c1 (stereo unspecified)
→ i, 0.94, 0, 95, -129, 52, -1.0
> COc1ccc(N(CC(O)Cn2nnc3ccccc32)S(=O)(=O)c2ccc(C)cc2)cc1 (stereo unspecified)
→ i, 0.89, -3, 105, 33, 84, -2.1
> COc1cccc(N2CCN(CC(=O)Nc3nnc(-c4ccccc4)s3)CC2)c1
→ i, 0.91, -13, 98, -48, 103, -1.4
> N#C/C(C(=O)N1CCOCC1)=C1/SC(Cc2ccccc2Cl)C(=O)N1c1ccccc1 (stereo unspecified)
→ i, 1.3, -9, 100, -107, 147, -0.5
> COCCN1C(=O)C(=O)/C(=C(/O)c2ccc(C)cc2)C1c1ccccn1 (stereo unspecified)
→ i, 1, -1, 112, ., ., .
> Cc1[nH]c2ccc(F)cc2c1CCN(Cc1cccnc1)C(=S)Nc1ccccc1
→ i, 0.92, 1, 112, -64, 218, .
> CCOc1ccc(OCC)c(NC(=O)C2CCCN2S(=O)(=O)c2cccc3cccnc23)c1 (stereo unspecified)
→ i, 0.95, 11, 101, ., ., 0.6
> CCN(CC)c1ccc(/C=N/NC(=O)c2ccc(Br)o2)cc1
→ i, 0.75, -3, 119, 21, 94, 1.7
> CC(=O)CCc1oc2ccc(C)cc2c1-c1ccc(C)o1
→ i, 0.98, -4, 101, 25, 113, .
> CC1CCc2c(sc3ncnc(NCc4cccnc4)c23)C1 (stereo unspecified)
→ i, 0.91, -6, 103, ., ., .
> CCO[C@H]1OC(C(=O)Nc2ccccc2)=C[C@@H](C2CC2)[C@@H]1CCCO
→ i, 0.8, -4, 80, ., ., .
> C/C(=N\NC(=O)NC1CCCCC1)c1ccc(OC(F)F)cc1OC(F)F
→ i, 0.97, -3, 103, ., ., .
> C=CCn1c(SCc2ccc(C(=O)Nc3nccs3)cc2)nnc1-c1ccc(C)c(Cl)c1
→ i, 0.85, -15, 99, ., ., -0.3
> CCOc1ccccc1-n1nnnc1SCC(=O)Nc1cc(C)on1
→ i, 0.87, -4, 100, ., ., -2.5
> CN1CCc2c(sc(/N=C/c3c[nH]c4ccccc34)c2C#N)C1
→ ?, ., ., 96, ., ., .
> CCCc1cc(=O)[nH]c(SCC(=O)NC(=O)c2ccccc2)n1
→ i, 0.83, -1, 102, -27, 113, -2.9
> CCCCCC[n+]1c(-c2ccc(Cl)cc2Cl)csc1Nc1ccccc1
→ i, 1.1, 1, 101, ., ., -0.3
> Cc1cc2nsnc2c(S(=O)(=O)NCC(=O)O)c1C
→ i, 1.1, -4, ., ., ., -0.9

# In another format: 6 of the compounds above
Compound,HSV augment,HSV augment primary fold,PKD1 kinase inh,RGS16-Gao,Insulin prom inh,Insulin prom inh cell count,GALR2 ag
COc1ccc(N(CC(O)Cn2nnc3ccccc32)S(=O)(=O)c2ccc(C)cc2)cc1 (stereo unspecified),i,0.89,-3,105,33,84,-2.1
COc1cccc(N2CCN(CC(=O)Nc3nnc(-c4ccccc4)s3)CC2)c1,i,0.91,-13,98,-48,103,-1.4
N#C/C(C(=O)N1CCOCC1)=C1/SC(Cc2ccccc2Cl)C(=O)N1c1ccccc1 (stereo unspecified),i,1.3,-9,100,-107,147,-0.5
COCCN1C(=O)C(=O)/C(=C(/O)c2ccc(C)cc2)C1c1ccccn1 (stereo unspecified),i,1,-1,112,.,.,.
Cc1[nH]c2ccc(F)cc2c1CCN(Cc1cccnc1)C(=S)Nc1ccccc1,i,0.92,1,112,-64,218,.
CCOc1ccc(OCC)c(NC(=O)C2CCCN2S(=O)(=O)c2cccc3cccnc23)c1 (stereo unspecified),i,0.95,11,101,.,.,0.6

# Following part
# Each structure is followed by: HSV augment, HSV augment primary fold, PKD1 kinase inh, RGS16-Gao, Insulin prom inh, Insulin prom inh cell count, GALR2 ag
> COc1ccc2nc(SCC(=O)N3CCN(c4ccccc4F)CC3)c(C#N)cc2c1
→ ., ., -2, ., 31, 76, -0.7
> COc1cccc(-c2nnc3sc(-c4ccco4)nn23)c1
→ i, 0.75, 6, 101, -37, 120, 1.0
> CCc1sc(C(=O)Nc2ccc(NC(C)=O)cc2)cc1C
→ ., ., -4, 104, ., ., -0.9
> O=C(CCCCCNc1nc(=S)[nH]c2ccccc12)NCCc1ccccc1
→ i, 0.9, 12, 102, ., ., -0.1
> CC(=Nc1cc(C(=O)c2ccccc2)ccc1N)C1=C(O)CC(C)(C)CC1=O
→ i, 0.96, 3, 95, ., ., .
> Cc1c(C(=O)N2CCN(C)CC2)oc2ccc(S(=O)(=O)N3CCOCC3)cc12
→ i, 0.88, -18, 99, 42, 79, -1.9
> COc1ccc(NC(=S)NCc2ccccn2)cc1OC
→ i, 0.95, -3, 99, ., ., .
> O=C(O)CC(Sc1n[nH]c(=S)s1)C(=O)O (stereo unspecified)
→ i, 1.1, ., 93, ., ., .
> CC(=O)N1C(C(=O)O)CSC1c1ccc(C)cc1 (stereo unspecified)
→ i, 1.2, -22, 98, ., ., .
> C#CC[N+](CC)(CC)CC#Cc1cccc(Cl)c1
→ i, 0.95, -1, 102, -22, 93, -0.8
> O=C(NNC1=Nc2cc([N+](=O)[O-])ccc2OC1)c1ccccc1Cl
→ i, 0.84, ., 99, ., ., .
> COc1cccc(/C=N/NC(=O)CC2C(=O)NN=C2C)c1O (stereo unspecified)
→ i, 0.99, 2, 101, -65, 73, -0.7
> CC(C)(C)OC(=O)NCCCC[C@H](NC(=O)c1nc[nH]c1C(=O)N1CCN(C(=O)OC(C)(C)C)CC1)C(=O)OC(C)(C)C
→ i, 0.87, -4, 101, ., ., .
> Cc1c(NC(=S)N/N=C/c2ccc(O)cc2)c(=O)n(-c2ccccc2)n1C
→ i, 0.86, 2, 102, ., ., -2.7
> COC(=O)c1c(C)[nH]c(C(=O)OCc2ccc(F)cc2)c1C
→ i, 1, -4, 100, 18, 192, -1.8
> O=C(NCCc1ccccc1)C(=O)Nc1ccc2c(c1)OCCO2
→ i, 1.1, 3, 100, 8, 59, .
> COc1cccc(NC(=O)C(c2ccccc2)N2CCCC2)c1 (stereo unspecified)
→ i, 1, -4, 88, ., ., .
> O=C(NCCCN1CCCC1=O)c1cccc(N2CCCC2=O)c1
→ i, 1, -2, 97, -39, 93, -2.2
> COc1ccccc1N=C(C)C1=C(O)CSC1=O
→ i, 0.92, 3, 99, ., ., -1.8
> COc1ccccc1NC(=O)C(=O)NNS(=O)(=O)c1ccc2ccccc2c1
→ i, 0.72, ., 102, ., ., .
> Cc1cccc2c1CC(C)(C)NC2=C(C#N)C#N
→ i, 0.94, -9, 103, 20, 128, -0.7
> O=C(Nc1nnc(-c2ccccc2Cl)o1)c1cc2cc([N+](=O)[O-])ccc2s1
→ i, 1, 2, 17*, 4, 42, -1.0
> CCOC(=O)N1CCC(NC(=O)C2CCN(C(=O)N3CC(C)Oc4ccccc43)CC2)CC1 (stereo unspecified)
→ i, 0.94, 3, 102, -15, 137, 0.0
> Cc1cc(C(c2ccc(C)o2)c2ccc(C)o2)c(O)c([N+](=O)[O-])c1
→ i, 0.82, 10, 66, 7, 123, -3.7
> CCOc1ccc(-n2c(SCC(=O)Nc3ccc(Br)cc3)nc3n[nH]c(C)c3c2=N)cc1
→ ., ., 0, 108, -114, 36, .
> COc1ncnc2c1cnn2-c1ccccc1
→ i, 0.79, -7, 102, 3, 120, -0.8
> CCCc1nnc(SCC(=O)Nc2ccc(OCC)cc2)n1N
→ i, 1, 21, 106, 35, 54, -0.9
> O=C(Nc1ccc(F)cc1)c1cc(-c2ccccc2)no1
→ i, 0.98, 0, 97, ., ., .
> Cc1cccc2cc(COC(=O)c3cccs3)c(=O)[nH]c12
→ i, 0.88, 0, 106, -32, 127, 0.6
> O=C(CCc1nnc(COc2ccccc2)o1)NCCc1cccs1
→ i, 1.1, -5, 98, ., ., .

# Structural class: the compounds so far containing bromine (2)
# Each structure is followed by: HSV augment, HSV augment primary fold, PKD1 kinase inh, RGS16-Gao, Insulin prom inh, Insulin prom inh cell count, GALR2 ag
> CCN(CC)c1ccc(/C=N/NC(=O)c2ccc(Br)o2)cc1
→ i, 0.75, -3, 119, 21, 94, 1.7
> CCOc1ccc(-n2c(SCC(=O)Nc3ccc(Br)cc3)nc3n[nH]c(C)c3c2=N)cc1
→ ., ., 0, 108, -114, 36, .

# 3 entries from above, arranged by their value in HSV augment primary fold, falling.
canonical_smiles	HSV augment primary fold
O=C(O)CC(Sc1n[nH]c(=S)s1)C(=O)O (stereo unspecified)	1.1
O=C(c1cc2ccccc2s1)N1CCOCC1	1
Cc1cccc2c1CC(C)(C)NC2=C(C#N)C#N	0.94

# (cont.)
# Each structure is followed by: HSV augment, HSV augment primary fold, PKD1 kinase inh, RGS16-Gao, Insulin prom inh, Insulin prom inh cell count, GALR2 ag
> Cc1cc(C)nc(NC(=O)c2ccc(COc3ccccc3Cl)cc2)c1
→ i, 0.94, -4, 100, 19, 129, .
> Cc1nnc(NC2=NCCC2)o1
→ i, 1.1, 5, 101, 43, 72, -2.0
> Cc1cc(C(=O)CSc2nc(N)cc(=O)[nH]2)c(C)n1CCc1ccc(F)cc1
→ i, 1.1, -8, 99, -31, 148, -0.3
> O=C(Nc1ccccc1Cl)Oc1ccc2ccccc2c1
→ i, 0.93, ., 107, ., ., .
> C#CCOCCOCCOCCNc1nc(N2CCOCC2)nc(N2CCN(C(=O)[C@H]([C@@H](C)CC)n3cc([C@@H](N)Cc4ccc(O)cc4)nn3)CC2)n1
→ i, 0.81, 8, 95, ., ., .
> CCOC(=O)c1ccc(NC(=S)N2CCN(Cc3ccccc3)CC2)cc1
→ i, 1, 5, 109, -30, 120, 0.6
> COc1cc2c(C(=O)N3CCOCC3)c(CSc3ccccc3)n(C)c2cc1Br
→ i, 0.92, -5, 97, -100, 92, .
> Cc1ccc(C)c2c1cc(C)c1nnc(SCC(=O)NCc3ccc4c(c3)OCO4)n12
→ i, 0.92, 2, 99, -28, 91, -0.7
> CCOC(=O)C1CCN(CC(=O)Nc2c(C(=O)OC)[nH]c3ccc(Cl)cc23)CC1
→ i, 0.92, -2, 96, -123, 69, 1.9
> COc1cccc(-c2ccc(=O)n(CC(=O)NCCN3CCOCC3)n2)c1
→ i, 1.3, -7, 108, -16, 121, -3.2

# Results in GALR2 ag, Insulin prom inh and HSV augment (4 entries from above):
Molecule | GALR2 ag | Insulin prom inh | HSV augment
Cc1nnc(NC2=NCCC2)o1 | -2.0 | 43 | i
Cc1cc(C(=O)CSc2nc(N)cc(=O)[nH]2)c(C)n1CCc1ccc(F)cc1 | -0.3 | -31 | i
O=C(Nc1ccccc1Cl)Oc1ccc2ccccc2c1 | . | . | i
C#CCOCCOCCOCCNc1nc(N2CCOCC2)nc(N2CCN(C(=O)[C@H]([C@@H](C)CC)n3cc([C@@H](N)Cc4ccc(O)cc4)nn3)CC2)n1 | . | . | i
